RecA splice inh: Mtb RecA intein splicing inhibitors, primary screen, biochemical, fluorescence, HTS. Protein RecA (Mycobacterium tuberculosis (strain ATCC 25618 / H37Rv)), P9WHJ3. cell-free RecA intein splicing. inhibition, %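 (about 9 µM by stock and volumes)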. 290,000 tested, 0.75% active. AID 2221, 2009; in the data active means inhibition above about 30%; inconclusive means no clear call, values can overlap the other calls;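 further: 0% = vehicle wells and 100% = reference inhibitor control wells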
Target sequence (P9WHJ3 whole entry, looked up, canonical isoform): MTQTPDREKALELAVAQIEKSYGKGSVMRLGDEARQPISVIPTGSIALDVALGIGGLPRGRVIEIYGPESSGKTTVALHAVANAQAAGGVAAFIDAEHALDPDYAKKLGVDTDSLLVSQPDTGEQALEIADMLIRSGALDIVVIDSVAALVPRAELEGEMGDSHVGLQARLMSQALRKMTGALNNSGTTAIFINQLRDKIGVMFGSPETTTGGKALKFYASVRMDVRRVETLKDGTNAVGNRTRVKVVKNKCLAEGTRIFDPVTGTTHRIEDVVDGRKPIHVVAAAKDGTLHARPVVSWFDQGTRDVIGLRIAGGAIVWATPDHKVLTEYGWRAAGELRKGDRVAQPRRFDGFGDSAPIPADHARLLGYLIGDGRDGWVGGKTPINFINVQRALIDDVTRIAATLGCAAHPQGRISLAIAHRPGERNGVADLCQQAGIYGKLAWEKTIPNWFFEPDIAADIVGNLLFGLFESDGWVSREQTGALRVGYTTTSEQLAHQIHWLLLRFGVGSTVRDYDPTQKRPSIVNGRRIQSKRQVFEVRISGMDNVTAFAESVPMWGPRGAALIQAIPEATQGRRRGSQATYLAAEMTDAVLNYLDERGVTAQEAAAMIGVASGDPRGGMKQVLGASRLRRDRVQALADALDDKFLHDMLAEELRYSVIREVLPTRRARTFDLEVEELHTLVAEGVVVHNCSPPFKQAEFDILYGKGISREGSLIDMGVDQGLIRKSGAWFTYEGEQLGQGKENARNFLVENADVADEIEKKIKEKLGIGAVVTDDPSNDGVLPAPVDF
Mtb H37Rv: M. tuberculosis H37Rv growth inhibitors, H37Rv strain (AID 1626). M. tuberculosis H37Rv growth inhibition; higher % means a stronger effect. inhibition, % at 10 µM, or IC50 in µM where a hit was titrated. 220,000 tested, 0.95% active;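 active means confirmed in a dose series; inconclusive means inhibition above 80% but not taken into the dose series; inactive means below 80% or under 30% at every dose of the series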;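 further: bacteria incubated seven days before Alamar blue readout; 0% = bacteria only wells and 100% = bacteria with antibiotic wells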
Mtb bLac sens: beta-lactam sensitization of Mtb H37Rv, H37Rv; M. tuberculosis H37Rv growth with meropenem, percent inhibition; hits of this screen are not shown here; inhibition, % at 25 µM; 330,000 tested, 0.27% active; AID 434955, 2010;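 active means about 74% or more and at least 40 points above the plate without the antibiotic, then above 30% in a dose series; inconclusive means first-round hits that could not be retested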;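 further: growth measured after seven days incubation then overnight dye step; 0% = bacteria only wells and 100% = bacteria with antibiotic; twin plates without the antibiotic show which effects depend on it; some results filed as inactive read as strong as hits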
YopH PTP inh: YopH tyrosine phosphatase inhibitors, primary screen, biochemical, fluorescence Ex485/Em525; YopH tyrosine phosphatase [Yersinia enterocolitica]; inhibition, %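 (about 10 µM by stock and volumes)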; 140,000 tested, 0.16% active;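 active means inhibition of 50% or more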;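 further: controls were vehicle for no effect and minimum signal wells for full effect; inactives centre near -20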
Arbovirus anti: antivirals against arbovirus infection, primary screen, cell-based, full library, 10K replicate subset; inhibition, % at 10 µM; AID 1251, 2008; 200,000 tested, 0.37% active; arbovirus infection cell-based antiviral screen;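 active means inhibition from about 30%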;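 further: bluetongue infection of BSR cells; cell survival read as ATP light after 72 h; 0% = infected wells without compound and 100% = uninfected wells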
Arbovirus anti repeat: also measured in Arbovirus anti; calls as there; inhibition, %; measured here: 10K subset replicate screen; many hits read low in the repeat;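 first of two repeat runs on a subset; 0% = infected and 100% = uninfected wells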
Starred values were filed as active, the others as inactive; ? = inconclusive; . = no result given.

SMILES	RecA splice inh	Mtb H37Rv	Mtb bLac sens	YopH PTP inh	Arbovirus anti	others
O=C(C1CCN(S(=O)(=O)c2cccc3cccnc23)CC1)N1CCN(Cc2ccccc2)CC1	.	.	-5	.	8	Arbovirus anti repeat=8
CCn1c(SCC(=O)Nc2cccc(C)c2)nc2ccccc2c1=O	1.1	.	-1	.	.
COc1ccc(NC2=Nc3ccccc3CC2)cc1	-0.2	35%	9	-27	-3
CN(C)C(=O)C1(c2ccccc2)CCN(S(=O)(=O)c2ccccc2)CC1	3.2	1%	24	-13	8
COc1ccccc1N1CCN(S(=O)(=O)c2ccc3c(c2)NC(=O)CS3)CC1	6.4	.	-7	.	.
COc1cc(C(=O)N(C)CCOc2ccccc2)ccc1OCC(=O)Nc1cccc(C(F)(F)F)c1	-1.2	.	5	.	.
Cc1cccc(N(Cc2ccccc2F)S(C)(=O)=O)c1	-2.3	3%	0	-35	4
COc1cc(CN2CCC(C(=O)N3CCN(c4ccccc4F)CC3)CC2)ccc1O	-3.4	5%	-10	11	13
COc1ccc(NC(=O)CN2C(=O)NC3(CCCC3)C2=O)c(OC)c1	2.4	.	2	.	.
NC(=O)c1cc(C(=O)Cc2ccccc2)c[nH]1	0.3	.	3	.	.
CC1CCN(C(=O)c2ccc(SCc3ccccc3F)c([N+](=O)[O-])c2)CC1	-0.9	7%	-7	-15	7
COc1cc(OC)cc(C(=O)Nc2c(C)nn(-c3ccccc3)c2C)c1	-2.7	3%	-7	.	-7
O=C(NCCOc1ccccc1Cl)C(=O)c1c[nH]c2ccccc12	5.8	2%	14	.	3
O=P1(Oc2ccccc2)OCCCS1 (configuration not stated)	-0.1	12%	-1	.	.
COc1cc(C(=S)N2CCN(C(c3ccccc3)c3ccccc3)CC2)cc(OC)c1O	17	.	14	.	.
COC(=O)/C(=C/c1ccccc1)NC(=O)c1ccco1	-1.4	-1%	-3	-19	4
CC(C)CCNC(=O)NC(=O)COc1ncnc2sccc12	-0.2	-7%	-3	-7	-3
CCOc1ccccc1OCC(=O)Nc1ccc(Cl)cc1Cl	-3.0	-3%	35	6	2
Cc1c(NC(=O)c2cc(-c3ccc(F)cc3)on2)c(=O)n(-c2ccccc2)n1C	-6.2	.	6	.	.
O=S(=O)(NCc1ccccc1)c1ccc(S(=O)(=O)N(Cc2ccccn2)C2CCCC2)cc1	5.7	-1%	-1	27	13
O=C(c1ccco1)N1CCN=C1SCc1ccc(F)cc1	3.6	-7%	-4	-15	4
COc1cccc(-c2nnc(SCC(=O)Nc3ccc(S(N)(=O)=O)cc3)n2C)c1	-1.9	-4%	-1	-15	-1
CCC(=O)NCCc1nc2cc(NC(=O)c3ccccc3OC)ccc2n1C	0.3	-8%	5	-15	-7
COc1cc(CNCCN(C)C)c(Br)cc1OCC(=O)NCc1ccccc1	-0.9	14%	-7	-26	1
COc1ccc(CNC(=S)Nc2ccc(OC)cc2)cc1	0.4	9%	2	-34	7

5 structures already listed, sorted by number of heavy atoms, falling:
SMILES	RecA splice inh	Mtb H37Rv	Mtb bLac sens	YopH PTP inh	Arbovirus anti	others
COc1cc(C(=O)N(C)CCOc2ccccc2)ccc1OCC(=O)Nc1cccc(C(F)(F)F)c1	-1.2	.	5	.	.
COc1cc(CN2CCC(C(=O)N3CCN(c4ccccc4F)CC3)CC2)ccc1O	-3.4	5%	-10	11	13
CCC(=O)NCCc1nc2cc(NC(=O)c3ccccc3OC)ccc2n1C	0.3	-8%	5	-15	-7
CCn1c(SCC(=O)Nc2cccc(C)c2)nc2ccccc2c1=O	1.1	.	-1	.	.
COc1ccc(CNC(=S)Nc2ccc(OC)cc2)cc1	0.4	9%	2	-34	7

Following part
SMILES	RecA splice inh	Mtb H37Rv	Mtb bLac sens	YopH PTP inh	Arbovirus anti	others
Cn1c(=O)c2c(nc(Oc3ccc4c(c3)OCO4)n2Cc2ccc(F)cc2)n(C)c1=O	2.8	-5%	-4	-16	3
CCN(CC1CCCO1)C(=O)c1cc(COc2ccccc2SC)on1 (configuration not stated)	5.3	.	-2	.	.
COc1ccc(OC)c(C2CC(=O)C3=C(C2)NC(=O)CC3c2ccc(O)c(OC)c2)c1 (configuration not stated)	-2.1	2%	-1	-30	-4
CCO[C@@H]1OC(C(=O)N2CCOCC2)=C[C@H](c2ccccc2)[C@H]1CCCO	0.6	-3%	-2	.	3
Cc1cc(C(=O)Nc2ccc(Cl)cc2)c2ccccc2n1	-4.6	.	-2	.	.
O=[N+]([O-])c1cc(Cl)cc(/C=N\Nc2ccccn2)c1O	-0.1	?	100	-30	-35
CCn1cc(C(=O)O)c(=O)c2cc(F)c(N3CCN(C(=S)Nc4ccccc4OC)CC3)cc21	-0.4	0%	60	.	.
CC1(NC(=O)NCc2ccco2)CCS(=O)(=O)C1 (configuration not stated)	-5.4	-7%	-7	-22	-9
COc1ccc(OC)c(C(=O)NC(CC(N)=O)c2ccc(N3CCN(c4ccc(F)cc4)CC3)c([N+](=O)[O-])c2)c1 (configuration not stated)	0.1	.	-4	.	.
CCOc1ccc(NC(=O)CN(c2ccc(OC)c(OC)c2)S(=O)(=O)c2ccc(C)cc2)cc1	-0.7	.	-7	.	.
CCC(NC(=O)Nc1nccs1)(C(F)(F)F)C(F)(F)F	-2.7	1%	2	-49	-3
CCn1cc([C@@H]2C[C@H]3CN(Cc4cccc(Cl)c4)C(=O)[C@]34CCCN24)cn1	-0.8	-1%	-3	.	-2
O=C(CCNC(=O)c1ccccc1Cl)Nc1ccc(Cl)c(C(F)(F)F)c1	2.3	-7%	-7	-26	-8
COc1ccc(C(=O)c2nc3ccccc3n2C(C)C)cc1	2.7	17%	44	.	-2
NC(=O)COC(=O)c1ccc(C(=O)C(=O)c2ccccc2)cc1	-1.3	-14%	-2	.	-7
CN1CCN(C(=O)/C(=C/c2ccccc2F)NC(=O)c2ccccc2)CC1	0.0	.	5	.	.
CCc1n[nH]c(=S)n1/N=C/c1ccc(-c2ccc(Br)cc2)o1	0.8	.	97	.	.
CCCOc1ccc(NC(=O)OC2CCN(C)CC2)cc1	-3.9	0%	6	-22	-11
CCOc1ccc(NN=C(C(=O)OC)C(=O)OC)c([N+](=O)[O-])c1	-1.1	-1%	-2	.	.
CC(=O)c1ccc(OCC(O)CN2CCN(CCO)CC2)cc1 (configuration not stated)	.	-6%	-4	-15	-7	Arbovirus anti repeat=1
CCc1ccc(NC(=O)CSc2ccc(-c3ccccn3)nn2)cc1	-0.6	.	100	.	.
Clc1ccc(-c2nnc(-c3ccccc3)nc2-c2c[nH]c3ccccc23)cc1	-6.1	6%	5	.	-3
CC(=O)N1C(C)(C)CC(=NOC(=O)c2ccccc2)CC1(C)C	-13	2%	-4	.	0
CCc1cccc(NC(=S)N(CCOC)C2CCN(C(C)=O)CC2)c1	0.2	.	0	.	.
O=C(N[C@@H](Cc1ccccc1)C(=O)Nc1ccc(F)cc1)C1CCNCC1	1.7	.	4	.	.

Random excerpt: 4 entries already listed
SMILES	RecA splice inh	Mtb H37Rv	Mtb bLac sens	YopH PTP inh	Arbovirus anti	others
COc1ccc(OC)c(C2CC(=O)C3=C(C2)NC(=O)CC3c2ccc(O)c(OC)c2)c1 (configuration not stated)	-2.1	2%	-1	-30	-4
CC(=O)c1ccc(OCC(O)CN2CCN(CCO)CC2)cc1 (configuration not stated)	.	-6%	-4	-15	-7	Arbovirus anti repeat=1
CCn1cc(C(=O)O)c(=O)c2cc(F)c(N3CCN(C(=S)Nc4ccccc4OC)CC3)cc21	-0.4	0%	60	.	.
CC1(NC(=O)NCc2ccco2)CCS(=O)(=O)C1 (configuration not stated)	-5.4	-7%	-7	-22	-9

(further entries)
SMILES	RecA splice inh	Mtb H37Rv	Mtb bLac sens	YopH PTP inh	Arbovirus anti	others
CCCCn1c(-c2ccoc2C)n[nH]c1=S	-1.5	-3%	1	-65	3
O=C(Nc1cccc(C(F)(F)F)c1)c1ccc(-n2cncn2)nc1	-2.9	-4%	-1	.	2
CC1CN(Cc2ccccn2)CCC1=O (configuration not stated)	-5.3	-1%	1	-22	0
Cc1ccccc1OCCNc1cc(N2CC(C)NC(C)C2)ccc1[N+](=O)[O-] (configuration not stated)	-1.0	58%	100	.	-33
COc1ccc(C(=O)ON=C2CCN(C)CC2)cc1	-2.5	-1%	7	.	-3
Cc1cccc(NS(=O)(=O)c2ccc(C(=O)N3CCCCCC3)cc2)c1C	-1.0	.	4	.	.
C=CCc1cc(C(=O)N2CCCCC2)ccc1O	-1.0	-5%	3	-17	10
CCOCCCNCc1ccc(OCc2ccc(F)cc2)c(OC)c1	0.4	-8%	-8	.	-17
CC1=C(C#N)C(c2cccnc2)C2=C(CC(c3ccc(Cl)cc3)CC2=O)N1 (configuration not stated)	-56	6%	6	-27	-12
CCOC(=O)N1CCN(C(=O)c2sc3nc(-c4ccc(F)cc4)cn3c2C)CC1	0.1	.	-5	-14	9
COc1ccc(OCc2nnc(SCC(N)=O)n2-c2ccccc2OC)cc1	-0.3	2%	-5	-40	-3
COc1cc(-c2nnc(SCC(=O)c3ccc(C)cc3)o2)cc(OC)c1OC	0.6	2%	-2	-11	3
COC(=O)c1c(-c2c(Cl)cccc2Cl)noc1C(=O)NNC(=O)N(C)C	2.0	-3%	3	.	.
Cc1cc(N/N=C/c2ccc([N+](=O)[O-])o2)nc2ccccc12	1.9	1%	98	.	-19
Cc1ccc(S(=O)(=O)NC(=O)NCCc2ccccc2)cc1	-4.2	9%	-7	.	5
CC(C)(C)OC(=O)NCCc1nnc(SCC(=O)Nc2ccc(Br)cc2)o1	1.1	-12%	-4	.	.
COc1cccc(C2CC(c3ccccc3Cl)n3nc(N)nc3N2)c1 (configuration not stated)	-3.6	-2%	-4	-51	12
O=C(Nc1c(-c2ccccc2)nc2ccc(Cl)cn12)c1cccs1	1.6	5%	7	-22	-10
CC(C)N(Cc1ccccc1)C(=S)NCCN1CCOCC1	0.8	6%	3	.	6
Cc1[nH]n(-c2ccccc2)c(=O)c1C=Nc1ccc(S(N)(=O)=O)cc1	-1.3	7%	-9	.	.
COc1ccc(OC)c(C(=O)c2coc3ccc(OCC(=O)O)cc23)c1	-2.2	-5%	81	-32	3
COc1ccc2c(c1)cc(C(=O)N[C@@H](Cc1ccccc1)C(=O)O)n2C	0.5	.	-2	.	.
CC(=O)Cn1ncc(N2CCOCC2)c(Cl)c1=O	-0.3	.	1	.	.
Cc1ccnc(-n2c(-c3ccccc3)nc3ccccc3c2=O)c1	-2.7	16%	-14	-29	1
COc1ccc(-c2nc(C#N)c(NCC3CCCO3)o2)cc1OC (configuration not stated)	0.8	0%	-5	7	-2
The list goes on:
SMILES	RecA splice inh	Mtb H37Rv	Mtb bLac sens	YopH PTP inh	Arbovirus anti	others
C=CCn1c(-c2cccc(OC)c2OC)n[nH]c1=S	0.0	-2%	7	.	6
COc1ccc(NC(=O)c2cc(-c3ccccc3Cl)no2)cc1	-0.3	1%	0	-9	1
CC1(C)Cc2nc3oc4c(=O)n(CC(=O)Nc5cccc(Cl)c5)cnc4c3cc2CO1	-0.9	-5%	-3	.	.
COc1ccc(OC)c2c1cc(C(=O)N[C@H](C(=O)N1CCC(C(=O)O)CC1)C(C)C)n2C	8.2	.	-6	.	.
Cc1ccc(F)cc1NC(=O)c1cnccn1	-1.6	-2%	-1	.	12
COc1cc2ccccc2cc1C(=O)N(CCN(C)C)c1nc2c(OC)ccc(OC)c2s1	6.3	.	79	.	.
COc1ccc(-c2csc(NC(=O)c3ccccc3C(=O)O)n2)cc1	0.7	6%	-3	.	13
O=S(=O)(Nc1ccccc1Cl)c1cc(NC(=S)NCCN2CCOCC2)ccc1Cl	3.3	.	-2	.	.
COc1ccccc1CNC(=O)CCn1c(=O)oc2ccccc21	2.0	-8%	-6	-19	-2	Arbovirus anti repeat=0
COc1ccc(OCc2nnc3n2N=C(c2ccc(OC)cc2)CS3)cc1	3.8	13%	1	.	-6	Arbovirus anti repeat=-12
COc1ccc(Cl)cc1NC(=O)NCC1CCN(Cc2ccccc2F)CC1	2.9	.	2	.	.
CCOC(=O)c1[nH]c(C)c(CC(C)C)c1C	-0.2	11%	2	.	-2
CCOC(=O)C1CCN(c2c(NC3CCCCCCC3)c(=O)c2=O)CC1	0.1	-6%	0	-28	25
COCCCn1c(SCc2ccccc2)nc2cc(OC)c(OC)cc2c1=N	0.0	1%	2	-30	-2
CCCn1c(SCC(=O)NC2CCCC2)nnc1-c1ccccn1	-5.1	-5%	-1	.	.
c1csc(-c2nc3c4ccccc4c4ccccc4c3[nH]2)c1	13	12%	4	20	14

High-throughput results from PubChem BioAssay.

These rows are one share of the data, so the mix of outcomes need not match the whole.
